# HIV Env fusion: inhibitors of HIV-1 Env-driven cell-cell fusion, primary screen, HeLa-JRFL effector, CEM21 target cells, luciferase | AID 651610, 2012 | actives 1.1% (n = 360,000) | inhibition, % at 12.3 µM;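 active = mean replicate inhibition score of at least 50 and every replicate individually at or above 50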;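 also: 0% = plate neutral controls and 100% = maraviroc near 300 nM; one replicate is shown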
# Yeast UUG start: modulators of yeast start codon fidelity, primary screen, whole organism, S. cerevisiae, single point, plate reader | S. cerevisiae UUG-firefly luciferase reporter, luminescence/redox ratio | activity score, % at 18.7 µM | actives 0.13% (n = 350,000);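 active = replicate mean at a twofold rise or more, about +100% in these data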;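 also: firefly luciferase made from a UUG start codon reports start codon fidelity; reporter light over untreated wells divided by growth signal over untreated wells; some hits fall short of that in this replicate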
# The depositor's hits bear a star; & = joins results of further samples; [ ] = dose if it differs, or a comment. An excerpt; rates above refer to the full screens.
# Results follow in this order: HIV Env fusion | Yeast UUG start
CN1CCN(C(=O)C2=C[C@@H](c3ccc4c(c3)OCO4)C[C@@H](OCCCCO)O2)CC1
    22.3[16.7 µM] | 11.5
CCCC(=O)Nc1ccc2c(c1)C(=O)N(C)[C@H]1CC[C@H](CC(=O)NC3CCCC3)O[C@H]1CO2
    -7.0[16.7 µM] | 10.6
O=C(C[C@H]1CC[C@H](NC(=O)C2CC2)[C@H](CO)O1)NCCCN1CCOCC1
    10.5[16.7 µM] | -13.0
COc1ccc(NC(=O)Nc2ccc3c(c2)C(=O)N([C@@H](C)CO)C[C@H](C)[C@@H](CN(C)Cc2ccc(C(=O)O)cc2)O3)cc1
    -14.2[16.7 µM] | -11.8
C[C@H](CO)N1C[C@H](C)[C@@H](CN(C)CC2CCOCC2)Oc2cc(C3=CCCC3)ccc2S1(=O)=O
    7.7[16.7 µM] | -3.0
C[C@@H]1CN([C@@H](C)CO)C(=O)c2cc(-c3ccc(F)cc3)cnc2O[C@@H]1CN(C)CC1CCOCC1
    -7.5[16.7 µM] | -2.8
CC(C)c1cn(CC[C@H]2CC[C@H](NS(=O)(=O)Cc3ccccc3)[C@H](CO)O2)nn1
    11.7[16.7 µM] | -0.5
CN(C)C(=O)C[C@H]1C=C[C@@H](NC(=O)Nc2cccc(F)c2)[C@@H](CO)O1
    -15.0[16.7 µM] | -7.1
C[C@H]1CN([C@@H](C)CO)C(=O)Cc2cc(NC(=O)Nc3ccc(C(F)(F)F)cc3)ccc2O[C@@H]1CN(C)C(=O)Nc1ccc(C(F)(F)F)cc1
    -0.1[16.7 µM] | -6.6
C/C=C/c1ccc2c(c1)O[C@H](CN(C)C(=O)Nc1ccc(C(F)(F)F)cc1)[C@H](C)CN([C@@H](C)CO)S2(=O)=O
    31.5[16.7 µM] | -19.1
CN1C(=O)c2cc(NC(=O)C3CCOCC3)ccc2OC[C@@H]2O[C@@H](CC(=O)NC3CCCC3)CC[C@H]21
    0.1[16.7 µM] | 3.4
Cc1noc(C)c1NC(=O)Nc1ccc2c(c1)C(=O)N([C@@H](C)CO)C[C@@H](C)[C@H](CN(C)S(=O)(=O)c1ccc(F)cc1)O2
    -12.6[16.7 µM] | 14.7
CN(C)C(=O)c1ccc(-c2ccc([C@H]3[C@@H](C#N)N(C(=O)Cc4ccccn4)[C@H]3CO)cc2)cc1
    -7.0[16.7 µM] | 0.9
COc1cccc(-c2cnc3c(c2)C(=O)N([C@H](C)CO)C[C@H](C)[C@H](CN(C)Cc2ccccc2)O3)c1
    8.6&-12.8[16.7 µM] | -10.1&-4.0
CC(=O)N(C)C[C@@H]1Oc2cc(C#Cc3cccc(F)c3)ccc2S(=O)(=O)N([C@@H](C)CO)C[C@@H]1C
    11.7[16.7 µM] | 23.8
Cc1noc(C)c1NC(=O)N(C)C[C@@H]1OCCCC[C@@H](C)Oc2ccc(NC(=O)c3ccncc3)cc2C(=O)N([C@H](C)CO)C[C@@H]1C
    -14.9[16.7 µM] | -5.6
CCC(=O)Nc1ccc2c(c1)C(=O)N(C)[C@@H]1CC[C@@H](CC(=O)NCCc3ccccc3)O[C@@H]1CO2
    -6.9[16.7 µM] | -11.6
COCCNC(=O)C[C@@H]1CC[C@@H]2[C@@H](COc3ccc(NC(=O)COC)cc3C(=O)N2C)O1
    -8.9[16.7 µM] | 1.3
O=S(=O)(N[C@@H]1CCCN(Cc2ccc(OCCO)cc2)C1)c1ccccc1
    -0.8[16.7 µM] | -0.2
CCNC(=O)C[C@H]1CC[C@@H]2[C@H](COc3ccc(NC(=O)Nc4ccc(Cl)cc4)cc3C(=O)N2C)O1
    -12.7[16.7 µM] | 11.1
C[C@@H]1CN([C@H](C)CO)C(=O)c2cccc(NC(=O)c3ccncc3)c2O[C@H]1CN(C)S(=O)(=O)c1ccccc1
    -15.5[16.7 µM] | -13.1
CNC[C@H]1OCCCC[C@@H](C)Oc2ccc(NS(=O)(=O)c3ccccc3)cc2C(=O)N([C@@H](C)CO)C[C@H]1C
    -2.4[16.7 µM] | 16.1
Cc1ccc(-c2ccc3c(c2)O[C@@H](CN(C)Cc2ccccn2)[C@H](C)CN([C@H](C)CO)S3(=O)=O)cc1
    16.0[16.7 µM] | -11.5
CC(C)NC(=O)N[C@H]1C=C[C@H](CC(=O)N2CCCCC2)O[C@@H]1CO
    3.9[16.7 µM] | -23.1
COc1ccc(S(=O)(=O)N(C)C[C@H]2Oc3ccc(NC(=O)Cn4cnnn4)cc3C(=O)N([C@@H](C)CO)C[C@H]2C)cc1
    -1.4[16.7 µM] | -5.8
C[C@@H]1CN([C@H](C)CO)S(=O)(=O)c2ccc(C#CC3CCCC3)cc2O[C@H]1CN(C)S(C)(=O)=O
    8.0[16.7 µM] | 4.7
Cn1cnc(S(=O)(=O)N[C@@H]2CC[C@@H](CC(=O)N3CCN(c4ccccc4)CC3)O[C@@H]2CO)c1
    15.4[16.7 µM] | -7.1
C[C@@H]1CN([C@@H](C)CO)C(=O)c2cc(NS(=O)(=O)c3ccccc3)ccc2O[C@@H](C)CCCCO[C@@H]1CN(C)CC1CCCCC1
    8.4[16.7 µM] | 21.2
Cc1noc(C)c1NC(=O)N(C)C[C@@H]1Oc2ccc(NC(=O)NC(C)C)cc2CC(=O)N([C@H](C)CO)C[C@H]1C
    -11.3[16.7 µM] | 30.8
CCCNC(=O)C[C@H]1CC[C@H]2[C@@H](COc3ccc(NC(=O)COC)cc3C(=O)N2C)O1
    20.7[16.7 µM] | -18.7
C[C@@H]1CN([C@H](C)CO)C(=O)CCCn2cc(nn2)CO[C@@H]1CN(C)S(=O)(=O)c1ccc(Cl)cc1
    12.3[16.7 µM] | 17.4
O=C(C[C@H]1C=C[C@H](NC(=O)Nc2ccc(F)cc2)[C@H](CO)O1)NCCN1CCCC1
    4.6[16.7 µM] | -3.7
CN1CCN(C(=O)C2=C[C@H](C3CC3)C[C@H](OCCCCO)O2)CC1
    11.9[16.7 µM] | 5.1
O=C(N1CCOCC1)[C@]1(CCS(=O)(=O)c2ccccc2)N=C(c2ccc(OCCCO)cc2)O[C@@H]1c1ccccc1
    13.8[16.7 µM] | 4.6
C[C@@H]1CN([C@H](C)CO)S(=O)(=O)c2ccc(-c3cccnc3)cc2O[C@@H]1CN(C)Cc1ccncc1
    16.7[16.7 µM] | -17.9
O=C(CS)NCCCCCCNC(=O)[C@@H]1C[C@@H]2C(=O)NCC(=O)N2[C@@H]1c1ccc(O)cc1
    -2.0[16.7 µM] | 4.4
CN(C)CCCC[C@@H]1NC(=O)[C@H]2C[C@@H](C(=O)NCc3ccc(F)cc3)[C@@H](c3ccc(O)cc3)N2C1=O
    6.4[16.7 µM] | -10.0
COc1ccc(S(=O)(=O)N(C)C[C@@H]2OCCCC[C@@H](C)Oc3ccc(NS(=O)(=O)c4cccs4)cc3C(=O)N([C@H](C)CO)C[C@H]2C)cc1
    -27.1[16.7 µM] | -13.9
CO[C@@H]1CN(C)C(=O)c2cc(NS(=O)(=O)c3ccc(-c4ccccc4)cc3)ccc2OC[C@H](C)NC[C@@H]1C
    1.2[16.7 µM] | -10.4
Cc1cc(C(=O)Nc2cccc3c2O[C@@H](CN(C)Cc2ccc4c(c2)OCO4)[C@@H](C)CN([C@H](C)CO)C3=O)n(C)n1
    18.1[16.7 µM] | 1.3
C[C@H]1CCCCO[C@H](CN(C)C(=O)Cc2ccccc2)[C@@H](C)CN([C@@H](C)CO)C(=O)c2cc(NC(=O)CCC(F)(F)F)ccc2O1
    -3.6[16.7 µM] | -0.8
C[C@@H]1CCCCO[C@@H](CN(C)S(=O)(=O)c2cn(C)cn2)[C@@H](C)CN([C@H](C)CO)C(=O)c2cc(NC(=O)Nc3cccc4ccccc34)ccc2O1
    0.6[16.7 µM] | 12.8
C[C@H](CO)N1C[C@H](C)[C@H](CN(C)S(C)(=O)=O)Oc2ccc(NC(=O)Nc3ccc4c(c3)OCO4)cc2CC1=O
    -1.1[16.7 µM] | 3.7
C[C@@H]1CCCCO[C@H](CN(C)C(=O)c2ccncc2)[C@H](C)CN([C@H](C)CO)C(=O)c2cc(NC(=O)CCC(F)(F)F)ccc2O1
    7.1[16.7 µM] | 29.6
COc1ccc(C#Cc2ccc3c(c2)[C@]2(C(=O)N3)[C@H](C(=O)N3CCc4cc(OC)c(OC)cc4C3)[C@H]3C(=O)O[C@H](c4ccccc4)[C@H](c4ccccc4)N3[C@@H]2c2ccccc2OCCO)cc1
    -10.9[16.7 µM] | -13.7
C[C@H](CO)N1C[C@H](C)[C@H](CN(C)S(=O)(=O)c2ccc(Cl)cc2)Oc2c(NS(=O)(=O)c3cccs3)cccc2C1=O
    14.0[16.7 µM] | 32.1
N#C[C@@H]1[C@@H](c2ccc(-c3ccncc3)cc2)[C@@H](CO)N1C(=O)CN1CCOCC1
    9.9[16.7 µM] | -0.8
CCCNC(=O)N(C)C[C@@H]1Oc2ncc(-c3ccc(F)cc3)cc2C(=O)N([C@H](C)CO)C[C@H]1C
    15.2[16.7 µM] | 0.0
C[C@@H]1CN([C@@H](C)CO)C(=O)Cc2cc(N(C)C)ccc2O[C@@H]1CN(C)Cc1ccncc1
    -11.5[16.7 µM] | -6.0
C[C@@H]1CCCCO[C@@H](CN(C)C(=O)NC2CCCCC2)[C@@H](C)CN([C@H](C)CO)C(=O)c2cc(NC(=O)Nc3cccc4ccccc34)ccc2O1
    0.5[16.7 µM] | -0.5
C[C@H]1CN([C@@H](C)CO)S(=O)(=O)c2ccc(C3=CCCC3)cc2O[C@H]1CN(C)C(=O)C1CCC1
    16.8[16.7 µM] | 17.8
CC(C)CC#Cc1cnc2c(c1)C(=O)N([C@@H](C)CO)C[C@H](C)[C@H](CN(C)S(=O)(=O)c1cn(C)cn1)O2
    3.9[16.7 µM] | -11.4
CCCNC(=O)N(C)C[C@@H]1Oc2ncc(/C=C/c3ccccc3)cc2C(=O)N([C@H](C)CO)C[C@@H]1C
    -13.3[16.7 µM] | 20.5
COc1ccc(NC(=O)N(C)C[C@H]2Oc3ccc(NC(=O)Cn4cnnn4)cc3CC(=O)N([C@H](C)CO)C[C@@H]2C)cc1
    -5.9[16.7 µM] | -2.1
C[C@@H]1CCCCO[C@@H](CN(C)C(=O)Nc2ccc(C(F)(F)F)cc2)[C@H](C)CN([C@@H](C)CO)C(=O)c2cc(NC(=O)Nc3ccc(C(F)(F)F)cc3)ccc2O1
    35.8[16.7 µM] | -20.0
C/C=C/c1ccc([C@H]2[C@@H](CO)N(C(=O)NC3CCCC3)[C@H]2C#N)cc1
    2.6[16.7 µM] | 13.1
CO[C@H]1CN(C)C(=O)c2ccc(NC(C)=O)cc2OC[C@@H](C)N(C(=O)c2ccccn2)C[C@@H]1C
    4.3[16.7 µM] | -3.4
C[C@H](CO)N1C[C@H](C)[C@H](CN(C)C(=O)Nc2ccc3c(c2)OCO3)Oc2ncc(C#CCN(C)C)cc2C1=O
    -1.9[16.7 µM] | 19.5
COc1ccc(NC(=O)N[C@@H]2CC[C@H](CCn3cc(-c4ccc(F)cc4)nn3)O[C@H]2CO)cc1
    -25.1[16.7 µM] | -8.4
C[C@H]1CCCCO[C@H](CN(C)Cc2ccc3c(c2)OCO3)[C@@H](C)CN([C@@H](C)CO)C(=O)c2cc(NC(=O)Nc3ccc(F)cc3)ccc2O1
    21.8[16.7 µM] | 18.6

# Of the compounds above, three contain two or more sulfur atoms:
# Results follow in this order: HIV Env fusion | Yeast UUG start
C[C@@H]1CN([C@H](C)CO)S(=O)(=O)c2ccc(C#CC3CCCC3)cc2O[C@H]1CN(C)S(C)(=O)=O
    8.0[16.7 µM] | 4.7
COc1ccc(S(=O)(=O)N(C)C[C@@H]2OCCCC[C@@H](C)Oc3ccc(NS(=O)(=O)c4cccs4)cc3C(=O)N([C@H](C)CO)C[C@H]2C)cc1
    -27.1[16.7 µM] | -13.9
C[C@H](CO)N1C[C@H](C)[C@H](CN(C)S(=O)(=O)c2ccc(Cl)cc2)Oc2c(NS(=O)(=O)c3cccs3)cccc2C1=O
    14.0[16.7 µM] | 32.1

# More results follow.
# Results follow in this order: HIV Env fusion | Yeast UUG start
C[C@H]1CN([C@@H](C)CO)C(=O)Cc2cc(NC(=O)Cc3ccccc3)ccc2O[C@@H]1CN(C)Cc1ccc(Oc2ccccc2)cc1
    -8.2[16.7 µM] | 8.8
C[C@@H]1CN([C@H](C)CO)C(=O)c2cc(NC(=O)Nc3ccc(F)cc3)ccc2O[C@H]1CN(C)S(=O)(=O)c1cn(C)cn1
    -8.0[16.7 µM] | -15.4
C[C@@H]1CN([C@@H](C)CO)S(=O)(=O)c2ccc(C#Cc3cccnc3)cc2O[C@H]1CN(C)C(=O)CN(C)C
    18.1[16.7 µM] | -0.5
C[C@H](CO)N1C[C@H](C)[C@@H](CN(C)C(=O)Nc2ccc3c(c2)OCCO3)OCc2cn(nn2)CCCC1=O
    11.1 | -4.9
CC(C)NC(=O)Nc1ccc2c(c1)C(=O)N(C)[C@@H]1CC[C@@H](CC(=O)NC3CCCCC3)O[C@@H]1CO2
    5.0[16.7 µM] | 0.1
C[C@@H]1CN([C@H](C)CO)S(=O)(=O)c2ccc(-c3cncnc3)cc2O[C@H]1CN(C)C(=O)C1CCC1
    -9.8[16.7 µM] | 2.1
C[C@@H]1CN([C@@H](C)CO)C(=O)c2cc(C#CC3CC3)cnc2O[C@@H]1CN(C)C(=O)Nc1ccccc1
    -10.2[16.7 µM] | -7.9
C[C@@H]1CN([C@@H](C)CO)C(=O)c2cccc(NC(=O)C3CC3)c2O[C@@H]1CN(C)Cc1ccc2c(c1)OCO2
    5.0[16.7 µM] | -3.5
CN1CCN(C(=O)C[C@H]2CC[C@H]3[C@@H](COc4ccc(NC(=O)c5ccc(F)c(F)c5)cc4C(=O)N3C)O2)CC1
    4.9[16.7 µM] | -9.0
COc1ccc(CN2C[C@@H](C)[C@H](OC)CN(C)C(=O)c3ccc(NC(=O)C4CC4)cc3OC[C@H]2C)cc1
    -28.4[16.7 µM] | -4.6
C[C@H](CO)N1C[C@H](C)[C@H](CN(C)C(=O)NC2CCCCC2)Oc2ccc(NC(=O)CCC(F)(F)F)cc2C1=O
    19.3[16.7 µM] | 17.6
